# TRPML1 agonist: activates the human TRPML1 channel | actives 0.12% (n = 410,000) | Q9GZU1 | AID 624414 | TRPML1-expressing cells, Ca2+ dye fluorescence, FDSS; host cell line not named in the record; reference of the full effect not given here | activation, % (test concentration not listed); in the data active = activation above about 50%; inconclusive = about 30% to 50%; inactive = below about 30%; also: 0% is about no effect; the text of the record puts the active cut at 80%
# Target sequence (Q9GZU1 whole entry, looked up): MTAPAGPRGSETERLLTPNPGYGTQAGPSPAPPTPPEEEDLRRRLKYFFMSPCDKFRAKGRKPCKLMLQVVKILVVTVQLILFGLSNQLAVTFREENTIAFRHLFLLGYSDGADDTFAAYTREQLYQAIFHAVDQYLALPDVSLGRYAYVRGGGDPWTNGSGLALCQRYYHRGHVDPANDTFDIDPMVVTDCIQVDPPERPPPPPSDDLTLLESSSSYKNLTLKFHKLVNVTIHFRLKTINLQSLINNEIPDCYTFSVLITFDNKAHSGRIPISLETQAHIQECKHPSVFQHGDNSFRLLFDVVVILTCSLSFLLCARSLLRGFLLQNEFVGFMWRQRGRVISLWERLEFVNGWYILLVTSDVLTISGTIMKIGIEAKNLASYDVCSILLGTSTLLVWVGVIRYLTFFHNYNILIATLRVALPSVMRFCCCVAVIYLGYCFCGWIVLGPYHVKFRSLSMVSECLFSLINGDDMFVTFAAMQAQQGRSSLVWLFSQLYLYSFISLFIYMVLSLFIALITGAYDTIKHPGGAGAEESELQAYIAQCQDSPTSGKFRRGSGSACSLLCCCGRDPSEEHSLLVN
#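 Calcium fluorescence on an FDSS kinetic reader gave the read-out. Tet-induced TRPML1-DL cells were plated overnight, dye-loaded (Ca8 with quencher, 45-90 min, room temperature, dark), then read 110 s after compound addition, and again 110 s after 4uM final 54-4 (EC80).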
# TRPML1 inh: blocks the human TRPML1 channel; AID 624415; activity change, negative = inhibition, % (test concentration not listed); actives 0.02% (n = 390,000); Q9GZU1; TRPML1-inducible cells, Ca2+ dye fluorescence, FDSS; active compounds read low; inhibition of EC80 agonist-evoked calcium signal; in the data active means activity change below about -50%; inconclusive means about -30% to -50%; inactive means above about -30%;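 also: stimulus is agonist 54-4 at its EC80 concentration; % is scaled to controls: 0 for no effect and ±100 for the full control effect; compound concentration not given in the record; the text of the record puts the active cut at -80%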
#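 Calcium fluorescence in TRPML1-DL cells induced overnight with Tet: a 110 s read after compound pin addition, then a 110 s antagonist read after challenge with 54-4 at 4 uM final (EC80).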
# Menin MLL FP FL: displaces fluorescein MLL peptide from human menin; Fluorescence polarization, fluorescein-MLL peptide displacement from menin; FP activity change, % at 61.4 µM; 290,000 tested, under 10 active; AID 1766; inconclusive = falling polarisation curve, or a change in total fluorescence; inactive = total fluorescence flat and polarisation flat or rising; no compound was filed as active; the % refers to the polarisation; negative = inhibition;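 also: % of control where 0% means no effect; inhibitors lower the polarisation; unlabelled MLL peptide was the positive control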
# TRPV1 PAM: enhances activation of the human vanilloid receptor TRPV1 | TRPV1-expressing cells, Fluo-8 calcium influx, capsaicin EC20 potentiation; host cell line not named in the record; control for the full effect not named in the record | actives 0.02% (n = 320,000) | potentiation, % at 8.33 µM | Q8NER1 | AID 540277; active means potentiation above 80%; inconclusive means 30% to 80%; inactive means below 30%; also: 0% is about no effect
#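 Fluo-8 calcium influx in TRPV1-expressing cells, kinetic read (ex 480/em 520 nm). Compound added and read 3 min for agonist activity, followed by capsaicin at EC20 final and 2 min further read for enhancement.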
# Sfp inh: blocks B. subtilis Sfp PPTase activity; Biochemical Sfp PPTase activity, qHTS; Potency, µM, without a hit: max response, negative = inhibition, hits mostly inhibitors; actives 3.5% (n = 310,000); active = well fitted inhibition curve with a large enough effect; inconclusive = small, poorly fitted or top-dose-only effect, or another doubt; inactive = no such curve, though single readings can be large or run the other way;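 also: the enzyme is Sfp with the accession as filed and its product quenches rhodamine fluorescence; potency is read from the fitted curve at half-maximal effect; 0% = enzyme reaction without inhibitor and -100% = no enzyme wells; top concentration of the series not given in the record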
#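 Compounds were incubated with enzyme (final 15 nM) for 15 min at room temperature before substrate addition started the reaction. Fluorescence at 525 nm excitation, 598 nm emission was recorded immediately and after 30 minutes.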
# ClpP mod: qHTS Assay for Activators of ClpP; ATP-dependent Clp protease proteolytic subunit (Bacillus subtilis (strain 168)), P80244; purified B. subtilis ClpP, FRET peptide cleavage, 20 min; Potency, µM (titrated, usually from 57.5 µM), without a hit: at the top dose activity change, negative = active; actives 1.9% (n = 340,000); active = well fitted falling curve with a large enough effect; inconclusive = small, poorly fitted or top-dose-only effect; inactive = no such curve, though single readings can be large or run the other way; also: potency is read from the fitted curve at half-maximal effect; the source files actives as falling curves though it sought activators and does not explain the sign; nearly all actives have a fitted effect of over 65% in size; many hits overshoot -100%
# Target sequence (P80244 whole entry, looked up): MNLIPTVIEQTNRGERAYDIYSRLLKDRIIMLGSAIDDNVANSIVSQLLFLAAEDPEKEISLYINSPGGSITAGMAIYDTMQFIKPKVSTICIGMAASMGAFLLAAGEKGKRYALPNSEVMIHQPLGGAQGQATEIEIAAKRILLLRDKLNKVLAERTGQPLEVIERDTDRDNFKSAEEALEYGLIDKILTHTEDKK
#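 Buffer: 100 mM Tris/HCl pH8, 100 mM KCl, 0.05% low protease BSA, 2.5% glycerol, 0.01% Tween-20. ClpP 10 microg/mL final; 20 min RT; delta FRET normalized to ADEP and DMSO controls.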
# PINK1 expr mod: PINK1 expression modulation; PINK1 immunofluorescence, high-content cytometry, 24 h; Potency, µM (highest dose often 76.6 µM), for inactives: at the highest dose activation (PINK1 increase), usual class: activators; actives 0.2% (n = 410,000); active = well fitted activation curve with a large enough effect; inconclusive = small, poorly fitted or top-dose-only effect; inactive = flat fitted curve, though single readings scatter; cell line not stated here;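 also: potency is read from the fitted curve at half-maximal effect; % of control where 0% means no effect; nearly all actives have a fitted effect of over 65% in size; a mitochondrial uncoupler was the plate control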
#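 A stable cell line was treated with compounds at 5 concentrations for 24 hours, with CCCP as control. PINK1 levels and mitochondrial localization were measured by immunofluorescence with mitochondrial, cell and nuclear markers after fixation, read by laser-scanning cytometry.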
# * marks the source's active call; other numbers are inactive results; u = inconclusive; x = not tested or not shown; & = joins results of further samples; [ ] = dose if it differs, or a comment.
SMILES,TRPML1 agonist,TRPML1 inh,Menin MLL FP FL,TRPV1 PAM,Sfp inh,ClpP mod,PINK1 expr mod
CCOC(=O)c1c(NC(=O)COc2ccccc2)sc2c1CC(C)(C)NC2(C)C,0.0,32,-0.9,2,0%,x,11%
Cc1cc2nccc(-c3ccc(OCCCF)cc3)n2n1,3.0,19,0.1,7,17%,-5.8%,-1.5%
CC(C)C(=O)Nc1c2c(nn1-c1ccc(F)cc1)CSC2,0.8,2,0.8,-1,19%,-2.1%,-0.2%
CCOc1ccccc1C(=O)Nc1cc2c(cc1N1CCCC1)n(CC)c(=O)n2CC,0.1,-9,x,-11,-25%,3.1%,1.4%
Cc1cccc(OCC(=O)NNC(=O)c2cc3ccccc3oc2=O)c1,-0.4,-14,0.3,0,14%,u,5.8%
CCOC(=O)[C@H]1[C@H]2COc3ccc(Cl)cc3[C@@H]2N2C(=O)c3ccc(C)cc3NC(=O)[C@@]12C,0.2,8,x,u,x,-6.3%,3.7%
CCOC(=O)c1cc2c(=O)n3ccccc3nc2n(Cc2ccco2)c1=NC(=O)c1ccc(C(C)(C)C)cc1,-0.7,-3,x,x,x,4.3%,2.4%
CCCCN(CCCNC(=O)c1c(C)cc(=O)oc1C)c1ccccc1,2.0,10,0.4,-14,12%,1.1%,-0.9%[38.3 µM]
CN(C)c1ccc(/C=C/c2ccnc3c(O)cccc23)cc1,1.3,x,x,x,x,-0.7%,13%
Cc1cc(N2CCN(C)CC2)nc2ccc(NC(=O)Nc3ccccc3Br)cc12,1.6,1,x,x,x,4.0%,-1.7%
S=C(NC1CCCCC1)N1CCN(C2CCCCC2)CC1,0.9,2,-11,-1,-25%,-11%,1.0%
O=C(COC(=O)C1CCC(=O)N1)Nc1ccccc1OC(F)F (configuration not stated),-0.1,-8,x,x,x,x,3.3%
Cc1ccc(S(=O)(=O)NCC2CCC(C(=O)NCc3cccnc3)CC2)cc1 (configuration not stated),-0.3,25,-1.4,6,4%,-1.6%,1.0%
Nc1c(-c2ccc(Cl)cc2)cnn1-c1ccccc1,2.4,9,0.1,-3,9%,1.8%,8.9%
N#Cc1c(N)nc2c(c1-c1ccc(F)cc1)CCC2,1.5,8,2.8,-1,9%,x,2.3%
O=c1c(-c2cccc(F)c2)nc2cncnc2n1C1CC1,x,x,-2.4,x,17%,x,0.5%
O=C(NC1(C(=O)NC2CCCCC2)CCCCC1)c1ccc2c(c1)OCO2,-0.2,2,1.1,-7,3%,-2.9%,1.7%
CCOCN(C(=O)Cn1c(CO)nc2ccccc21)c1c(C)cccc1CC,1.1,1,0.7,-6,13%,0.0%,0.2%
CN(C)S(=O)(=O)N(CC(=O)Nc1ccc(C(F)(F)F)cc1)c1ccccc1,-0.2,-18,x,x,x,0.8%,0.8%
Cc1nn(-c2ccccc2)c(Cl)c1/C=N/NC(=O)c1cccnc1,0.6,6,4.6,2,21%,-5.6%,-1.1%
O=S(=O)(Nc1ncccn1)c1ccc(-n2cnnn2)cc1,1.9,-4,-0.8,5,11%,-1.2%,2.0%
CCOC(=O)c1c(C)cc(=O)oc1C,0.1,10,1.6,14,9%,0.3%,1.3%
COC(=O)c1ccc([N+](=O)[O-])cc1N1C(=O)C2C3CCC(C3)C2C1=O (configuration not stated),-0.2,-19,1.2,-10,0%,0.5%,0.2%
O=C(Nc1ccc(F)cc1)Nn1cnnc1,0.2,25,5.1,5,13%,-1.2%,-0.6%
CC1Cc2cccc3ccc(=O)n(c23)C1 (configuration not stated),1.3,-4,x,x,x,-11%,-2.8%
CNc1ccccc(C(=O)/C=C/c2ccccc2OC)c1=O,0.4,-5,u,1,32µM*,2.0%,16%
O=C(Nc1ccc(Cl)cc1)c1ccncc1,-0.8,17,1.5,-15,11%,-1.2%,-1.8%
COC(=O)CNS(=O)(=O)c1ccc(C)cc1,-0.2,14,4.2,12,15%,1.2%,-0.4%
Cc1ccc2sc(N(CCCN(C)C)C(=O)c3ccc(S(=O)(=O)N(C)C)cc3)nc2c1C,0.9,20,1.2,-6,-1%,-0.7%,4.6%
CC(=O)c1ccc(OCCn2c(SCC(=O)O)nc3ccccc32)cc1,-0.3,-2,3.2,9,19%,-2.1%,0.5%
CN1CCN(c2nc3c(c(=O)n(C)c(=O)n3C)n2Cc2ccccc2F)CC1,0.8,17,-0.2,9,11%,-1.6%,2.1%
CSCC[C@H](NC(=O)C(C)(C)Oc1ccc(Cl)cc1)c1nc2ccccc2[nH]1,-1.2,18,-0.5,-5,11%,0.6%,7.1%
O=C(NCCc1cccs1)c1ccc(Cn2c(SCc3ccccc3)nc3cccnc32)cc1,1.5,13,x,x,x,4.0%,1.4%
CCc1ccccc1NS(=O)(=O)c1ccc2nc(-c3ccccc3)[nH]c2c1,1.3,-4,x,x,x,-3.7%,8.5%
Cc1cc2c(c(=O)o1)C(C1C=CCCC1)C(C#N)=C(N)O2 (configuration not stated),0.1,-6,u,4,-7%,-2.7%,-2.4%
C=CCOc1ccc(C(=O)Nc2ncn[nH]2)cc1,-0.8,-6,-0.4,17,15%,-0.2%,-0.5%
OC(Cn1cccn1)c1ccccc1 (configuration not stated),0.2,3,2.7,-6,18%,-0.7%,0.0%
Cc1ccc(N2CC(C(=O)N3CCCCCC3)CC2=O)cc1 (configuration not stated),-0.8,10,x,-4,17%,-0.3%,-0.6%
COc1ccc(C(C)NC(=O)CCc2ccccc2)cc1 (configuration not stated),-0.4,-9,-1.9,u,7%,0.7%,0.7%
CNc1nc(NC#N)nc(SC)n1,x,x,1.0,-6,-3%,0.9%,0.4%
COC(=O)CNC(=O)C1CCCN1C(=O)OC(C)(C)C (configuration not stated),-0.1,-1,-0.9,0,7%,-0.9%,6.7%[38.3 µM]
Cc1cccn2cc(-c3ccccc3)nc12,-0.1,-6,0.6,3,1%,10µM*,0.3%
Cc1ccc(N2C(=O)C3C4CC(=O)C(c5ccccc54)C3C2=O)cc1C (configuration not stated),-0.8,14,0.5,1,3%,-0.1%,-1.4%
O=S(=O)(NCCS(=O)(=O)N1CCN(c2ccccc2)CC1)c1ccc(Br)cc1,1.5,-2,x,x,x,0.2%,4.8%
Cc1ccc(C)n1-c1ccc(-c2nnc3n2CCCCC3)s1,-1.2,16,5.0,0,u,0.9%,0.6%
COC(=O)c1cc(C(=O)CSc2nc(C)cc(C)n2)ccc1O,0.6,7,-2.2,1,u,-12%,0.9%
O=C(NCCNCc1cccs1)c1ccccc1F,-0.3,-8,0.0,3,-24%,-0.1%,1.2%
N#C/C(=C\c1c(N2CCCCC2)nc2ccccn2c1=O)C(=O)NC1CCS(=O)(=O)C1 (configuration not stated),0.0,28,1.7,u,8%,4µM*,-1.0%
CN(C)/C=C1/OC(=O)C(C#N)=C1c1ccc(Cl)cc1,2.4,10,4.2,3,-4%,-0.9%,-0.3%
Cn1c(=O)c(=O)n(C)c2cc(N3CCCC3)c(NS(=O)(=O)c3ccc(F)cc3)cc21,-0.8,-7,3.5,8,1%,-1.2%,-0.2%
CCCCCCCCCCCCCCCC[n+]1cccc(C(=O)N(CC)CC)c1,u,-20&2,0.5,7,u,0.1%,-1.8%&-2.7%
COc1ccccc1CNC(=O)c1cnc2c(-c3ccccc3)c(C)nn2c1C,0.8,6,x,x,x,0.5%,1.6%
COc1ccc(N2CCN(C(=O)Cc3ccc(C)cc3)CC2)cc1,-0.4,12,-0.9,-12,-7%,-0.5%,-1.2%
Cc1ccc(-n2ncc3c(N4CCC(C(N)=O)CC4)ncnc32)c(C)c1,0.2,3,2.8,-9,20%,-5.5%,x
O=C(C1=C(O)C(=O)N(CC2CCCO2)C1c1ccccc1Cl)c1ccco1 (configuration not stated),0.0,-7,-2.4,-5,11%,x,-2.0%
COc1ccccc1N(CC(=O)N/N=C/c1ccc(SC)cc1)S(C)(=O)=O,1.4,-8,6.1,3,8%,-25%,-0.7%
CC(C)N(C)Cc1nnnn1CC(=O)N(C)Cc1ccc(F)cc1,-0.7,5,-0.4,-4,14%,1.0%,-0.4%
COC(=O)C(Cc1cnc(Cl)s1)(C(=O)OC)c1ccc([N+](=O)[O-])cc1[N+](=O)[O-],0.7,11,0.9,3,3%,0.4%,-2.4%
Cc1ccc(S(=O)(=O)N2CCCC2)cc1C(=O)N1CCN(Cc2ccccc2)CC1,-0.4,-18,1.3,26,10%,x,0.1%
Cc1ccccc1NC(=O)c1cc2ccccn2n1,0.0,3,-2.3,-34,3%,1.3%,1.2%

# Next part:
SMILES,TRPML1 agonist,TRPML1 inh,Menin MLL FP FL,TRPV1 PAM,Sfp inh,ClpP mod,PINK1 expr mod
O=C(CN1C(=O)NC2(CCCCC2)C1=O)Nc1ccc(S(=O)(=O)N2CCOCC2)cc1,-0.1,9,-5.6,5,10%,-1.3%,0.3%
COc1ccccc1CCn1c(=O)c(-c2cccc(F)c2)nc2cncnc21,x,x,3.7,x,-6%,x,-0.4%
CN(C)c1nc(OCCOC(=O)Nc2ccc(Cl)cc2Cl)nc(N(C)C)n1,-0.3,28,2.3,12,13%,-7.3%,-2.0%[38.3 µM]
O=C(CCN1CCN(CCO)CC1)Nc1ccccc1,0.2,-13,-1.8,1,21%,-2.8%,0.2%
CCCCNC(=O)C1CC(c2ccccc2[N+](=O)[O-])=NO1 (configuration not stated),0.1,-11,-0.8,-6,4%,-1.8%,0.6%

# In the list so far, these contain a nitro group on carbon:
SMILES,TRPML1 agonist,TRPML1 inh,Menin MLL FP FL,TRPV1 PAM,Sfp inh,ClpP mod,PINK1 expr mod
COC(=O)c1ccc([N+](=O)[O-])cc1N1C(=O)C2C3CCC(C3)C2C1=O (configuration not stated),-0.2,-19,1.2,-10,0%,0.5%,0.2%
COC(=O)C(Cc1cnc(Cl)s1)(C(=O)OC)c1ccc([N+](=O)[O-])cc1[N+](=O)[O-],0.7,11,0.9,3,3%,0.4%,-2.4%
CCCCNC(=O)C1CC(c2ccccc2[N+](=O)[O-])=NO1 (configuration not stated),0.1,-11,-0.8,-6,4%,-1.8%,0.6%

# An excerpt from the list above, as a working copy:
SMILES,TRPML1 agonist,TRPML1 inh,Menin MLL FP FL,TRPV1 PAM,Sfp inh,ClpP mod,PINK1 expr mod
CCOCN(C(=O)Cn1c(CO)nc2ccccc21)c1c(C)cccc1CC,1.1,1,0.7,-6,13%,0.0%,0.2%
CN(C)S(=O)(=O)N(CC(=O)Nc1ccc(C(F)(F)F)cc1)c1ccccc1,-0.2,-18,x,x,x,0.8%,0.8%
